HNF4A DNA FP = change in binding of human HNF4 alpha to DNA; P41235; HNF4a-FITC DNA binding, fluorescence polarization, 1 h; activity change, % at 10 µM; 360,000 compounds, 0.3% hits; in the data active means activity change above about 30%, passing the limit was not always enough;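 further: controls were the assay level and a saturating level of protein; the project sought stronger binding though the title names inhibitors; some compounds called inactive have numbers as strong as hits; positive values seem to mean higher polarization but the record does not say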
Target sequence (P41235 whole entry, looked up): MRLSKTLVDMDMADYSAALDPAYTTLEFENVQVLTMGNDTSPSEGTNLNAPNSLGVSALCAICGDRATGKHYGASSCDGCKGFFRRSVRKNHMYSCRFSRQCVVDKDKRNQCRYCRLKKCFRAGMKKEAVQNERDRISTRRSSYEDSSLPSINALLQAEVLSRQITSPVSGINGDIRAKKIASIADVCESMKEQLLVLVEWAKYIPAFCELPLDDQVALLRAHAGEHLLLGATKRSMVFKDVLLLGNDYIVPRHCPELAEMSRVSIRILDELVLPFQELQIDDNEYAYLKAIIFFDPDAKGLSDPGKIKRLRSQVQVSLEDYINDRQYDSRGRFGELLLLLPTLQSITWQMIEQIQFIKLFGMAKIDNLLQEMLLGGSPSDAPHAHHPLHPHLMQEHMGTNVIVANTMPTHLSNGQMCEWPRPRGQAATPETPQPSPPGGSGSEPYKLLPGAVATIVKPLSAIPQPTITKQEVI
Vif A3G = inhibitors of Vif binding to APOBEC3G peptide, primary screen, biochemical, TR-FRET, GST-Vif 1-94, biotin-A3G peptide, dose response retest (AID 1117319). TR-FRET GST-Vif / biotin-A3G peptide binding; higher % means a stronger effect; test concentration not given here; strong numbers were not always called active. inhibition, %, or IC50 in µM where a hit was titrated. 260,000 compounds, 0.57% hits;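 active means above the screen mean plus three standard deviations and confirmed in dose response; inconclusive means results disagree or hit not tested in dose response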;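 further: Vif residues 1-94 fused to GST binding biotinylated APOBEC3G peptide 110-148; 0% = full assay without inhibitor and 100% = GST in place of GST-Vif; retest series ran down from 100 µM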
UCH37 inh = inhibitors of human deubiquitinating enzyme UCH37. Q9Y5K5. purified proteasome/UCH37, Ub-AMC cleavage fluorescence. inhibition, % (no concentration beside the values). 330,000 compounds, 0.33% hits. AID 588478;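 active means mean of two replicates above 20%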;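 further: 0% = compound-free wells with enzyme and 100% = wells lacking proteasome; stock transfer was 100 nL into about 20 µL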
Target sequence (Q9Y5K5 whole entry, looked up): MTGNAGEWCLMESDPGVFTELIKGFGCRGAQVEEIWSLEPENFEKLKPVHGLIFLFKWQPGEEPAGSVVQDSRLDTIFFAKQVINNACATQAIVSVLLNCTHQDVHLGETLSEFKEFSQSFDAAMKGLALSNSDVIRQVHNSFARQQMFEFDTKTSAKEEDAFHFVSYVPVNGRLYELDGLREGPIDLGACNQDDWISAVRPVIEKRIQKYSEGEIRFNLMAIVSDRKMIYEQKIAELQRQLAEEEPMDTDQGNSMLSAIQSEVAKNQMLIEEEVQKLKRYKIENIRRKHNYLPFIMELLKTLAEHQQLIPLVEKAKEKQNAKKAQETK
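Signal – fluorescence, ex 355 nm, em 460 nm · System – Proteasome-bound UCH37 · Input – 0.15 nM proteasome as dispensed · Timing – 30 min preincubation with enzyme, 25 min cleavage at room temperature · Read-out basis – percent inhibition of cleavage signal versus uninhibited and no-proteasome wells · Medium – Tris-HCl pH 7.4 with ATP-MgCl2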
E coli growth = E. coli growth inhibition | Escherichia coli growth, OD600, 23 h; active compounds read low | OD600 absorbance (concentration not given with the values) | 330,000 compounds, 0.21% hits;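 active means OD600 absorbance below the run mean of sample wells minus 3.6 SD, in any replicate, cut at about 0.56 in these data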;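 further: stock transfer was 300 nL into about 60 µL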
RanGTP-Imp inh = inhibitors of RanGTP-importin-beta interaction, primary screen, biochemical, FRET, CFP-Ran, YFP-importin-beta, homogeneous | cell-free CFP-Ran/YFP-importin-beta FRET ratio | inhibition, % (concentration not given with the values) | 300,000 compounds, 1.1% hits | AID 2216;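 active means most replicates above 15%; inconclusive means exactly half above 15%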;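 further: 0% = DMSO wells and 100% = Ran loaded with GDP instead of GTP; wells of about 40 µL received 100 nL stock; the first replicate is given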
AF4-AF9 inh = blocks AF4 peptide binding to human AF9 | P42568 | AlphaScreen, biotin-AF4 peptide binding to FLAG-AF9 | inhibition, % at 10 µM | 350,000 compounds, 0.47% hits;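 active means every replicate reaching a set inhibition limit, whatever the replicate mean, cut at about 25% in these data; inconclusive means mean inhibition reaches that limit but some replicates miss it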;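 further: 0% = plate neutral control median and 100% = total signal loss; the record names both 10 and 1 µM as test concentration; the first replicate is given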
FGF22 binding = FGF22 (human) thermal shift binding; AID 651658; calls only at 9.99 µM; 340,000 compounds, 1.5% hits; recombinant FGF22 thermal shift, SYPRO orange fluorescence; percent of sucrose octasulfate shift, DMSO zero; Q9HCT0;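 active means melting point raised past a set limit in the mean and every replicate; inconclusive means no clear call; three in four hits are not shown here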
Target sequence (Q9HCT0 whole entry, looked up): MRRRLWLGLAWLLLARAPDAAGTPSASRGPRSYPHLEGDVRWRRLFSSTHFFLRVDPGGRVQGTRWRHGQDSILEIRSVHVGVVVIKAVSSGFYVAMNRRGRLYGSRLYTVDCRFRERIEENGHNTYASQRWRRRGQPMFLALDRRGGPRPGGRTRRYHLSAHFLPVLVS
* hit, by the source's call; i = inactive; u = inconclusive; x = not tested or not shown; + = active, no number; & = joins results of further samples. An excerpt. The share of hits here may be higher or lower than overall.

molecule,HNF4A DNA FP,Vif A3G,UCH37 inh,E coli growth,RanGTP-Imp inh,AF4-AF9 inh,FGF22 binding
COc1ccc(C(c2nnnn2Cc2ccccc2)N2CCN(C(=O)c3ccco3)CC2)cc1 (centres undefined),0.5,-2%&-8%,2.5,0.76,0.4,x,x
C[C@H](NC(=O)c1[nH]cnc1C(=O)Nc1nccs1)c1ccccc1,-0.8,x,0.2,x,x,5.3,i
O=C(NCCN1CCCCC1)c1ccc(F)cc1Cl,0.4,x,1.2,0.66,3.7,-9.9,i
COc1ccc(C2(C(=O)N3CCCC3)CCOCC2)cc1OC,3.0,-2%,1.9,0.72,1.0,x,x
c1ccc(-c2nnc(CN3CCN(c4ccccc4)CC3)o2)cc1,1.6,5%,0.0,0.8,-0.2,-3.4,i
COc1cc(CN2CCC(C(=O)N3CCC(C)CC3)CC2)cc(Br)c1O,-0.3,2%&0%,1.3,0.67,8.8,x,x
O=C(Nc1cc([N+](=O)[O-])ccc1C(=O)Nc1cccnc1)c1ccccc1,-1.0,-3%,-0.6,0.71,0.1,-1.2,i
Cc1ccc2nc(-c3ccc(SCC(=O)Nc4nnc(C)s4)nc3)[nH]c2c1,2.5,x,-106,0.69,1.9,x,x
CCCCOc1ccc(/C=C/C2=CC(C)(C)NC(=S)N2)cc1OCC,-2.6,-7%,-1.9,0.76,2.3,x,x
CCN(CC(=O)Nc1cc(Cl)ccc1C)C(=O)c1cc(S(=O)(=O)N2CCCCCC2)ccc1OC,-0.3,-1%,1.0,0.68,4.3,1.6,i
COc1cc(/C=C(/C#N)c2ccccc2)ccc1Oc1ccc([N+](=O)[O-])cn1,2.5,u,4.7,0.67,3.0,x,x
CCCCC(CC)C(=O)NCc1ccccc1OC (centres undefined),0.5,-11%,1.2,0.73,-0.9,x,x
CCN(CC)CC#CCC1(O)c2ccccc2-c2ccccc21,-1.5,-4%,1.3,0.64,0.0,4.8,i
COc1ccc(/C=C(\NC(=O)c2ccc(C)cc2)C(=O)NCCCn2ccnc2)cc1,-4.1,x,0.1,0.7,0.9,0.9,i
O=c1[nH][nH]c2c1[C@H](c1ccc(F)cc1)O[C@H](C1CCCCC1)C2,-2.4,x,x,x,x,-6.2,i
CC1(C)Cc2c(sc(NC(=O)c3ccc(S(=O)(=O)N4CCCCCC4)cc3)c2C(N)=O)C(C)(C)N1,0.1,x,-197,0.73,-1.4,0.4,i
C[C@@H]1CN([C@@H](C)CO)C(=O)CCCn2nncc2CO[C@@H]1CN(C)C(=O)CCC(F)(F)F,1.7,-4%,x,x,x,-2.1&1.2&-2.0,i
CCN(CC)c1ccc(N)cc1S(=O)(=O)Nc1ccc(OC)cc1,1.6,13%,1.0,0.66,-5.8,-4.3,i
Cc1ncsc1C(=O)O,-0.1,1%,-1.1,0.7,3.8,-0.5,i
O=C(N/N=C/c1ccc(Cl)cc1Cl)c1ccc(-n2cnnn2)cc1,0.4,-1%,x,x,x,-9.6,i

Full records, quoted from the list. Screens in order: HNF4A DNA FP | Vif A3G | UCH37 inh | E coli growth | RanGTP-Imp inh | AF4-AF9 inh | FGF22 binding
`O=c1[nH][nH]c2c1[C@H](c1ccc(F)cc1)O[C@H](C1CCCCC1)C2` in the list: -2.4 | x | x | x | x | -6.2 | i
`O=C(Nc1cc([N+](=O)[O-])ccc1C(=O)Nc1cccnc1)c1ccccc1` in the list: -1.0 | -3% | -0.6 | 0.71 | 0.1 | -1.2 | i

Next section:
molecule,HNF4A DNA FP,Vif A3G,UCH37 inh,E coli growth,RanGTP-Imp inh,AF4-AF9 inh,FGF22 binding
O=C(CSc1cc(Cl)ccc1Cl)NC1CCCc2ccccc21 (centres undefined),0.5,-9%,3.6,0.72,1.2,-0.8,x
CCN(CC)c1ccc(N2C(=O)/C(=C\c3cccnc3)SC2=S)cc1,0.2,25%,1.3,0.69,-3.3,x,x
O=S(=O)(c1cccc(NC(=S)N2CCN(c3ccccc3)CC2)c1)C(F)F,4.1,x,1.8,0.69,2.2,x,x
Cc1ccc(S(=O)(=O)Cc2ccc(C(=O)N3CCCCCC3)o2)cc1,4.0,-5%,4.4,0.74,1.0,-1.1,i
O=C(N1CCOCCOc2ccccc2OCCOCC1)C(F)(F)F,-1.1,x,5.3,0.71,-0.8,-0.3,i
CC(C)(C)c1nnc2cccc(Cl)n12,2.0,6%,1.7,0.68,4.1,-2.1,i
C=CCc1cc2c(oc(=O)c3ccccc32)c(C)c1O,-0.5,x,-32,0.64,-2.4,-1.0,i
O=C(COC(=O)c1ccccc1C(=O)c1ccccc1)NCCc1ccccc1,-2.5,8%,-1.6,0.67,x,0.8,i
COc1ccc(C)cc1NC(=O)CSc1nnc(CC(=O)Nc2ccccc2C)n1C,0.5,6%&-2%,5.0,0.72,5.3,x,x
CCOC(=O)c1c(-c2ccccc2)csc1NC(=O)c1cc2ccccc2oc1=O,-2.2,u,5.6,0.72,-2.4,2.1,i
Cc1cccc(NC(=O)[C@H](Cc2ccccc2)NC(=O)[C@@H]2Cc3ccccc3CN2)c1,2.5,2%,0.7,0.72,1.6,3.4,i
O=C(Cc1ccccc1)Nc1nc2ccccc2s1,-1.2,3%,3.1,0.7,-2.6,x,x
CC(C)N(Cc1ccccc1)C(=S)NC1CCCCC1,-2.9,x,-0.1,0.68,0.4,-11,x
O=C(CN1CCC(C(=O)c2ccc(F)cc2)CC1)NCc1ccccc1F,8.3,x,2.2,0.69,-1.5,1.0,i
NC(=O)C1CCN(c2oc(/C=C/c3ccc(F)cc3)nc2S(=O)(=O)c2ccccc2)CC1,1.5,-2%,i,0.66,5.0,0.7,i
O=C1C2CC=CCC2C(=O)N1c1ncn[nH]1 (centres undefined),0.2,1%,1.2,0.63,39*,x,x
CCOC(=O)/C(=N/Nc1ccc(OC)cc1)N1CCCc2ccccc21,3.1,u,x,x,3.9,10,i
Cc1ccc(-c2cc([C@H]3[C@@H]4C=CCC[C@@]4(C)C(=O)N3Cc3ccccc3)ccc2F)cc1,-2.8,-5%,x,x,1.1,2.3,i
Cc1c([N+](=O)[O-])oc2c1C(=O)NCCC2,4.2,-6%,x,x,x,-0.3,i
CCc1cccc(N(C(=O)c2csnn2)C(C(=O)NC(C)(C)C)c2ccccn2)c1 (centres undefined),0.4,-4%,2.1,0.68,3.3,-1.9,x
O=C(Cn1ncc2c3ccccc3n(Cc3ccccc3F)c2c1=O)NC1CC1,-2.6,x,-30,0.7,1.6,-8.7,i
O=C(COC(=O)Cc1ccccc1F)Nc1ccc(Cl)cn1,3.6,3%,5.3,0.68,-2.9,-0.3,i
Cn1cnnc1SCC(=O)Nc1ccc(S(=O)(=O)N2CCCC2)cc1,4.8,9%,3.3,0.67,-0.4,-4.2,i
COc1ccc(-c2nc(CN3CCN(c4ccccc4OC)CC3)c(C)o2)cc1,1.4,2%,1.0,0.67,3.1,11,x
COC(=O)c1cn(NC(=O)c2ccc([N+](=O)[O-])c(C)c2)c(=O)c2ccccc12,1.4,1%,-0.6,0.68,23,-3.1,i
CCNC(=S)N(CCc1ccc(OC)c(OC)c1)Cc1cc2cc(OC)ccc2[nH]c1=O,5.2,-5%,-0.8,0.67,-3.0,1.1,i
CC(=O)c1c(C)[nH]c(C(=O)NCCc2ccc(Cl)cc2)c1C,-1.8,-9%,6.1,0.68,u,-0.5,i
O=C(N/N=C/C=C/c1ccccc1)C1CC1(c1ccccc1)c1ccccc1 (centres undefined),-7.0,3%,x,x,4.7,x,x
COc1ccc(C(=O)Nc2nc3cc4c(cc3s2)OCCO4)c(OC)c1,5.9,-8%,-422,0.64,0.2,3.0,i
CC1(Cc2ccc(Cl)cc2)C(=O)Nc2ccc(-c3cccnc3)cc21 (centres undefined),3.3,x,x,x,x,0.2,i
O=C(NCCCO)c1nc2ccccc2s1,-0.5,-6%,2.4,0.7,8.6,x,x
CCOC(=O)[C@]12CCCC=C1N(Cc1cccc3ccccc13)C(=O)[C@H](CC(=O)N1CCN(C(=O)c3ccco3)CC1)C2,4.2,x,x,x,x,8.0,i
N#C/C(=C/c1ccc(N2CCOCC2)c([N+](=O)[O-])c1)C(N)=O,-1.4,u,7.7,0.66,-1.1,-2.0,i
COc1ccc(S(=O)(=O)NCc2nc3nc(C)cc(C)n3n2)cc1,1.6,x,-4.1,0.76,x,7.2,i
CC(C)N(CCn1c(=S)[nH]c2ccccc2c1=O)C(C)C,0.9,2%,1.5,0.72,-0.3,x,x
Cc1ccc(-n2[nH]c(C)c(C=Nc3ccc(S(=O)(=O)Nc4nccs4)cc3)c2=O)cc1,x,x,7.2,0.66,-0.3,x,x
CCn1nc(C)c(CNC(=O)C2CCC(=O)N(CCc3ccc(Cl)cc3)C2)c1C (centres undefined),-0.6,x,3.3,0.68,5.8,2.5,i
CC(C)n1c(=O)c2ccccc2n1Cc1cn(-c2ccc(Cl)cc2)nn1,0.1,x,x,x,x,-5.8,+
O=C(NCCc1ccc(F)cc1)C1CCCO1 (centres undefined),0.8,x,2.3,0.7,1.4,-0.1,i
Cc1ccc(NC(=O)COC(=O)CNC(=O)c2ccc(C)s2)cc1,-0.4,-5%,1.0,0.66,1.7,2.8,i
O=C(CSc1nc2ccccc2c(=O)n1-c1cccc(C(F)(F)F)c1)NC1CC1,-3.8,10%,0.7,0.7,3.3,x,x
O=[N+]([O-])c1ccc(N2CCN(Cc3ccncc3)CC2)cc1,-2.2,x,6.4,0.65,-4.0,0.6,i
CC(C)(C)C(=O)Cn1ncc(N2CCOCC2)c(Cl)c1=O,-0.4,-6%,5.3,0.65,2.1,-2.7,i
COc1ccc(-c2cc(CS(=O)(=O)c3ccccc3)on2)cc1,-2.3,8%,2.3,0.64,-0.5,0.1,i
CC(=O)N1CCN(C(=O)CCNS(=O)(=O)c2ccc(Br)cc2)CC1,2.3,0%,0.9,0.68,x,-7.2,i
COc1ccc([N+](=O)[O-])cc1N(CC(=O)N1CCCCC1)S(C)(=O)=O,2.9,12%,4.1,0.68,-1.3,0.2,i
CC1(C)Cc2c(sc(NC(=O)COc3ccc(Cl)cc3)c2C(N)=O)C(C)(C)N1,-3.3,-2%,-41,0.71,5.8,-0.4,i
CCOC(=O)C1(Cc2ccc(Cl)cc2)CCN(C(=O)c2sc(C)nc2C)CC1,0.7,6%,0.4,0.66,u,-0.3,i
O=c1c2ccccc2nc2c3ccccc3c(Cl)nn12,x,23%,-8.4,0.67,4.0,x,x
C=CCN(c1ccccc1C(=O)O)S(=O)(=O)c1ccc(C)cc1,3.8,4%,3.7,0.67,8.7,-0.5,x
CCOC(=O)C1CN(S(=O)(=O)c2ccc(OC)cc2)c2cc(Cl)ccc2O1 (centres undefined),-0.1,-6%,0.7,0.69,3.2,-5.1,i
Cc1ccc(S(=O)(=O)N2CCC(O)(c3cccnc3)CC2)cc1,5.0,9%,1.2,0.66,0.4,x,x
CCN1C(=O)/C(=C2/C=CC=CN2C)OC1=S,0.1,20%,12,0.68,2.1,x,x
N#CC1=C(N)Oc2c(oc(CO)cc2=O)C1c1ccsc1 (centres undefined),0.3,8%,0.7,0.69,-2.4,x,x
O=S(=O)(c1ccc2oc3ccccc3c2c1)N1CCOCC1,4.0,22%,1.8,0.64,1.3,x,x
COc1cccc(NC(=O)CCN2C(=O)C3CC=CCC3C2=O)c1 (centres undefined),4.4,2%,1.7,0.69,-2.3,-1.3,i
CC1(C(=O)NS(=O)(=O)c2ccccc2)CCN1C(=O)Cc1cc(F)ccc1F (centres undefined),4.1,x,x,x,x,-2.3,i

Screens from PubChem BioAssay.
